# ClpP mod: qHTS Assay for Activators of ClpP | ATP-dependent Clp protease proteolytic subunit (Bacillus subtilis (strain 168)), P80244 | purified B. subtilis ClpP, FRET peptide cleavage, 20 min | Potency, µM (doses to about 57.5 µM), inactives show at the highest dose activity change, negative = active | 340,000 compounds, 1.9% hits | AID 651965, 2013; active = well fitted falling curve with a large enough effect; inconclusive = small, poorly fitted or top-dose-only effect; inactive = no such curve, though single readings can be large or run the other way; note: potency is the fitted concentration of half-maximal effect; the source files actives as falling curves though it sought activators and does not explain the sign; nearly all actives have a fitted effect of over 65% in size; many hits overshoot -100%
# Target sequence (P80244 whole entry, looked up): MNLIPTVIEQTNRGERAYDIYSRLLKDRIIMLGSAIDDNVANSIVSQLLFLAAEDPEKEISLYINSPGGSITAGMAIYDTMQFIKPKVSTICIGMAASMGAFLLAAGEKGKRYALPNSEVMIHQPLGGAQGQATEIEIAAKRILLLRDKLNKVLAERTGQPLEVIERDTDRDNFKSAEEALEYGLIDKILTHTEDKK
#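 Buffer: 100 mM Tris/HCl pH8, 100 mM KCl, 0.05% low protease BSA, 2.5% glycerol, 0.01% Tween-20. ClpP 10 microg/mL final; 20 min RT; delta FRET normalized to ADEP and DMSO controls.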
# Menin-MLL FL inh: qHTS Assay for Inhibitors Targeting the Menin-MLL Interaction in MLL Related Leukemias: Competition With Fluorescein Labeled MLL-derived Peptide; FP activity change, % at 61.4 µM; AID 1766, 2009; 290,000 tested, under 10 active; Fluorescence polarization, fluorescein-MLL peptide displacement from menin; inconclusive = falling polarisation curve, or a change in total fluorescence; inactive = total fluorescence flat and polarisation flat or rising; no compound was filed as active; the % refers to the polarisation; negative = inhibition;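 note: % of control where 0% means no effect; inhibitors lower the polarisation; unlabelled MLL peptide was the positive control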
# gsp antagonist: qHTS for Antagonists of gsp, the Etiologic Mutation Responsible for Fibrous Dysplasia/McCune-Albright Syndrome: qHTS; AID 624288, 2012; Potency, µM (highest dose often 76.9 µM), inactives show at the top dose activity change, negative = inhibition, hits mostly inhibitors; gsp-mutant cells, cAMP HTRF, 30 min; control for the full effect not named in the record; 340,000 compounds, 0.4% hits; active = falling curve of any shape with a large fitted effect; inconclusive = falling curve, mostly with a smaller effect; inactive = flat or rising curve; cell line not stated here;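 note: intracellular cAMP measured with PDE inhibitor Ro 20-1724 present during compound exposure; potency is the fitted concentration of half-maximal effect; % is set by controls: 0 for no effect and ±100 for the full control effect; nearly all actives have a fitted effect of over 65% in size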
#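 Measurement of cellular cAMP by homogeneous time-resolved fluorescence following a 30 min compound exposure at 37C. The PDE inhibitor […] was present throughout; the assay buffer was DPBS with 0.05% BSA and 0.005% Tween 20.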
# TRPML1 blocker: qHTS for Inhibitors of the Human Mucolipin Transient Receptor Potential 1 (TRPML1). 390,000 compounds, 0.02% hits. TRPML1-inducible cells, Ca2+ dye fluorescence, FDSS; active compounds read low; inhibition of EC80 agonist-evoked calcium signal. activity change, negative = inhibition, % (test concentration not listed). Mucolipin-1 (Homo sapiens), Q9GZU1; in the data active means activity change below about -50%; inconclusive means about -30% to -50%; inactive means above about -30%;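 note: stimulus is agonist 54-4 at its EC80 concentration; % is set by controls: 0 for no effect and ±100 for the full control effect; compound concentration not given in the record; the text of the record puts the active cut at -80%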
#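 Tet-induced TRPML1-DL cells loaded with Ca8 no-wash calcium dye were read kinetically on FDSS. Compound addition was followed by EC80 agonist 54-4 (4 uM final); inhibition was read over 110 s.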
# TRPV1 PAM: HTS Assay for Compounds that Act as Potentiators of the Vanilloid Receptor 1. Transient receptor potential cation channel subfamily V member 1 (Homo sapiens), Q8NER1. TRPV1-expressing cells, Fluo-8 calcium influx, capsaicin EC20 potentiation; host cell line not named in the record; control for the full effect not named in the record. potentiation, % at 8.33 µM. 320,000 compounds, 0.02% hits. AID 540277, 2011; active means potentiation above 80%; inconclusive means 30% to 80%; inactive means below 30%; note: 0% is about no effect
# Target sequence (Q8NER1 whole entry, looked up): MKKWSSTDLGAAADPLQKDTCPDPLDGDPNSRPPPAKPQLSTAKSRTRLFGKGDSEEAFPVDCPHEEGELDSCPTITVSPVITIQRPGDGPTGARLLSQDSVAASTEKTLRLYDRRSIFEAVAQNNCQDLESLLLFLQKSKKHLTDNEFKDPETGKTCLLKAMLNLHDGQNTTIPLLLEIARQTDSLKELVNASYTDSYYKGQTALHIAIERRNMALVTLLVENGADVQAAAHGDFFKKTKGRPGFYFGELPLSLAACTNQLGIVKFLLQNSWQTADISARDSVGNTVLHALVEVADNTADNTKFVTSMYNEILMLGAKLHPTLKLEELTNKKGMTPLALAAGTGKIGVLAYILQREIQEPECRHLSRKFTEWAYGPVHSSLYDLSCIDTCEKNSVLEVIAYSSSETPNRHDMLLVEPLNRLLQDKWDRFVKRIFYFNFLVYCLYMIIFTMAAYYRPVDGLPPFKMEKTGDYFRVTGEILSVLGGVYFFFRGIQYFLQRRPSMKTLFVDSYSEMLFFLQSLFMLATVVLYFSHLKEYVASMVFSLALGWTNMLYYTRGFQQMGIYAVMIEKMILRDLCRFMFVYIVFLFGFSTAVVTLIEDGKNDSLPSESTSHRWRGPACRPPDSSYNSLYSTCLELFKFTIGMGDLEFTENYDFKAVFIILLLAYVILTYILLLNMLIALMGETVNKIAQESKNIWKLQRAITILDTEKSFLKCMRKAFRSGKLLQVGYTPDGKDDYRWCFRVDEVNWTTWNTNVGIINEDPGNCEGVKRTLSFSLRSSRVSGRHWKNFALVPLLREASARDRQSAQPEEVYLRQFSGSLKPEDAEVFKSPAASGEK
#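 Cells expressing TRPV1 were dye-loaded with Fluo-8 and read kinetically: 10 s baseline, 3 min after compound (agonist portion), then 2 min after EC20 capsaicin (allosteric enhancer portion). Calcium-bound dye fluorescence at 480/520 nm.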
# gsp agonist: qHTS for Agonist of gsp, the Etiologic Mutation Responsible for Fibrous Dysplasia/McCune-Albright Syndrome: qHTS | 340,000 compounds, 0.13% hits | gsp mutant cells, cAMP HTRF, 30 min; control for the full effect not named in the record | Potency, µM (series often up to 76.9 µM), inactives show at the highest dose activation (cAMP increase), usual class: activators; active = well fitted activation curve with a large enough effect; inconclusive = small, poorly fitted or top-dose-only effect, or another doubt; inactive = no such curve, though single readings can be large or run the other way; cell line not stated here;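 note: phosphodiesterase inhibitor Ro 20-1724 added with compounds to block cAMP breakdown; potency is the fitted concentration of half-maximal effect; nearly all actives have a fitted effect of over 60% in size; about a fifth of the inactives were tested at one dose only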
#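 Cells stably selected in G418 were plated at 2000/well, grown 16-24 hr, then given compounds in DMSO with the PDE inhibitor […] (300 uM solution added) for 30 min at 37C; cAMP was read by HTRF.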
# Sfp PPTase inh: qHTS Assay for Inhibitors of Bacillus subtilis Sfp phosphopantetheinyl transferase (PPTase). 310,000 compounds, 3.5% hits. Potency, µM, without a hit: max response, negative = inhibition, hits mostly inhibitors. Biochemical Sfp PPTase activity, qHTS. AID 1490, 2009; active = well fitted inhibition curve with a large enough effect; inconclusive = small, poorly fitted or top-dose-only effect, or another doubt; inactive = no such curve, though single readings can be large or run the other way;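 note: the enzyme is Sfp with the accession as filed and its product quenches rhodamine fluorescence; potency is the fitted concentration of half-maximal effect; 0% = enzyme reaction without inhibitor and -100% = no enzyme wells; top concentration of the series not given in the record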
#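 Step 1, compound plus 15 nM Sfp-PPTase, 15 min, room temperature. Step 2, add rhodamine-CoA (5 uM) and BHQ-2-YbbR (12.5 uM). Step 3, read 525/598 nm fluorescence at 0 and 30 min.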
# Starred values were filed as active, the others as inactive; u = inconclusive; x = not tested or not shown; & = joins results of further samples; [ ] = another dose, or the depositor's remark.
SMILES,ClpP mod,Menin-MLL FL inh,gsp antagonist,TRPML1 blocker,TRPV1 PAM,gsp agonist,Sfp PPTase inh
Cc1cc(Cl)n2ncc(-c3ccccc3)c2n1,-3.7%,2.3,-16.8%,-12.2,11.0,-22.4%[15.4 µM],8.5%
Cc1cc(N2CCN(C(=O)c3ccco3)CC2)n2nc(C)nc2n1,-0.4%,2.1,-6.7%,12.4,-0.7,-3.3%,2.0%
O=C(CSc1nccn(-c2ccc3c(c2)OCCO3)c1=O)Nc1ccccc1,-4.0%,x,-22.5%,-1.2,20.0,20.3%,x
CCCCCC(=O)N1CCN(S(=O)(=O)c2ccc3c(c2)OCCCO3)CC1,28.2µM*,x,-10.5%,11.2,11.2,5.3%,x
O=C(NCCN1CCNC1=O)C1CCC(=O)N(CCc2ccccc2)C1 (configuration not stated),0.6%,0.6,16.6%,-4.8,5.8,4.1%,22.5%
O=C(CSc1nc2c(cnn2-c2ccccc2)c(=O)[nH]1)c1ccc(Cl)cc1,0.0%,2.2,-12.4%,-12.6,-7.2,19.7%,7.8%
Cc1cc(NC(=O)CSc2nccn2C)no1,x,-1.2,3.5%,-1.7,-1.9,-37.6%[inhibitor],19.1%
CCC(=O)c1ccc(OCc2cn(CC(=O)c3ccc(O)cc3)nn2)cc1,-0.3%,x,-6.9%,-2.3,x,x,x
CCCn1c(N)c(N(CCOC)C(=O)c2c(CC)noc2C)c(=O)[nH]c1=O,-3.0%,x,12.4%,-1.0,17.1,9.8%,x
Cc1occc1C(=O)Nc1cnn(CCCC(=O)O)c1,0.3%,x,20.1%,33.4,0.5,u,2.8%
O=C1Nc2ccccc2C(=O)N2C[C@@H](O)C[C@H]12,x,1.1,1.5%,10.2,10.9,4.3%,3.3%
CN(CC(=O)Nc1ccc(Cl)c(C(F)(F)F)c1)C(=O)c1cccc(N2C(=O)CCC2=O)c1,0.5%,x,-2.8%,13.1,5.8,-3.3%,x
Cc1cc2oc3cc(NCCC4CCCN4C)ccc3c(=O)c2cc1C (configuration not stated),3.4%,x,12.3%,-8.0,x,x,x
C=CCNC(=O)C1COc2ccccc2O1 (configuration not stated),x,-0.5,11.9%,-6.5,-3.5,20.4%[15.4 µM],0.9%
CCC(Oc1ccccc1)C(=O)OCC(=O)Nc1sccc1C(N)=O (configuration not stated),-3.7%,x,-13.0%,2.5,-2.7,u,x
CC1(OC(=O)CCc2ccccc2)C(=O)C=C2C=C(c3ccc(C#N)cc3)N(c3ccccc3)C=C2C1=O (configuration not stated),-11.2%,u,-19.9%,-5.9,u,-21.1%,3.8%&-21.8%
C[C@H](CCC(=O)O)[C@H]1CC[C@H]2[C@@H]3CC[C@@H]4C[C@H](O)CC[C@]4(C)[C@H]3C[C@H](O)[C@]12C,1.3%&0.6%&-0.3%,1.1,-5.5%&-14.6%&-8.3%,-3.9&0.6,x,x,26.3%
CC(C)c1ccc(S(=O)(=O)N2CCN(C(=O)CN3C(=O)NC(C)(c4ccccc4)C3=O)CC2)cc1 (configuration not stated),0.3%,x,-1.3%,-1.8,0.4,-0.5%,x
CCn1c(SCC(=O)O)nnc1-c1ccccc1OC,x,3.8,7.9%,2.8,-18.4,23.2%,-1.0%
O=C(Cn1nnc(-c2cccs2)n1)OC1CCCCC1,-1.3%,0.2,u,-1.2,-15.2,-20.8%,-4.0%
O=C1c2ccc(-c3ccc(Cl)c(C(F)(F)F)c3)cc2S(=O)(=O)c2cccc(C(=O)N3CCN(c4ccc(Cl)cn4)CC3)c21,-6.5%,x,0.1%,-15.5,x,-6.8%,x
O=C1CC(Cc2ccccc2)C(=O)N1CCc1ccc2c(c1)OCO2 (configuration not stated),-1.3%,3.4,4.2%,5.9,-8.6,7.3%,u
CCN(CC)S(=O)(=O)c1ccc2[nH]c(=O)cc(C(=O)NCC(c3ccco3)N3CCCC3)c2c1 (configuration not stated),-14.5%,x,15.3%,1.2,7.2,16.6%,x
CCn1c2ccccc2c2cc(NC(=O)c3ccccc3-c3ccccc3C(=O)O)ccc21,-0.8%,-1.4,-13.5%,-5.8,24.5,-44.2%[inhibitor],u
Cc1nnc(NC(=O)c2oc3ccccc3c2C)s1,-1.5%,x,-1.3%,-3.8,6.5,15.2%,2.0%
CC(C)Cn1c(=O)c2ccccc2n2c(CCC(=O)NC3CCN(Cc4ccccc4)CC3)nnc12,-28.7%,x,-2.7%,9.5,9.4,-0.7%,4.4%
COCc1ccc(CN2CCCC(C(=O)Nc3ccccc3-c3ccc(OC)cc3)C2)o1 (configuration not stated),0.0%,x,-6.6%,-4.0,0.6,-29.4%,13.8%
NNC(=O)CN1C(c2ccc(Cl)cc2)=Nc2ccc(Br)cc2C1c1ccccc1 (configuration not stated),-13.9%,0.9,11.0%,35.0,4.5,6.4%,10.1%
C[C@H]1CN([C@@H](C)CO)C(=O)CCCn2nncc2CO[C@@H]1CN(C)Cc1cccc2c1OCCCO2,-1.3%,x,x,-15.7,x,8.6%,x
CCn1cc(C(=O)OCC(=O)Nc2cccc(S(=O)(=O)N3CCOCC3)c2)c(=O)c2ccc(C)nc21,-2.9%,1.5,28.9%,5.2,6.3,-7.1%,4.4%
O=C(Nc1ncccn1)c1cccc(Cl)c1,-1.4%,x,-0.5%,5.2,x,10.6%,x
Cc1ccc(NCc2nnc(SCC(=O)NCCc3ccccc3)n2C)cc1,1.6%,1.2,13.4%,2.3,29.3,-48.0%[inhibitor],-7.3%
O=C(Nc1ccc(S(=O)(=O)Nc2nccs2)cc1)C1CC(=O)N(c2ccccc2)C1 (configuration not stated),x,-0.4,-2.8%,10.1,-1.1,-3.9%,22.1%
O=C(c1ccc(Cl)cc1[N+](=O)[O-])N1CCOCC1,x,0.3,10.0%,15.2,-0.4,14.7%[15.4 µM],21.4%
N=c1ccn(Cc2ccccc2Cl)cc1,0.7%,0.1,15.6%,-2.0,-7.6,-0.5%,-1.1%
COc1ccc(N(CC(=O)NCc2ccccc2Cl)S(=O)(=O)c2c(C)noc2C)cc1,0.0%,-1.7,-12.9%,3.2,-9.5,-5.5%,7.9%
COCCN(C(=O)CSc1nc2ccccc2o1)c1c(N)n(Cc2ccccc2)c(=O)[nH]c1=O,-0.1%,x,0.3%,11.8,-3.5,34.1%,x
COc1cccc(OCCCn2ccnc2)c1,-4.3%,0.0,-2.9%,-17.8,1.2,-3.6%,-1.9%
COC(=O)c1ccc(CNC(=O)c2ccc(S(=O)(=O)N3CCCCCC3)cc2)cc1,x,x,0.4%,-8.3,x,-41.4%[inhibitor],x
COc1ccccc1Nc1ccc2nonc2c1[N+](=O)[O-],-1.9%,-2.2,7.8%,-6.7,-7.1,-0.5%,19.6%
Fc1ccc(OCc2nc(-c3ccncc3)n[nH]2)cc1,x,0.2,19.8%,-1.4,u,9.1%[15.4 µM],14.0%
COc1ccc(CN(C)CCCn2cnc(C(=O)Nc3ccc(C)c(C)c3)n2)cc1OC,-1.7%,x,7.8%,0.8,x,x,x
CCOC(=O)N1CCN(/[N+]([O-])=N/Oc2ccc([N+](=O)[O-])cc2[N+](=O)[O-])CC1C (configuration not stated),x,-0.9,x,8.1,x,x,-9.3%
COC(=O)C1=C(C)C(c2ccc(OC)cc2)NC(=S)N1 (configuration not stated),-1.7%,-0.9,6.5%,11.5,26.4,-4.1%,8.3%
CC(C)(C)NC(=S)NC(=O)C12CCC3CC(CC(C3)C1)C2,-0.2%,3.0,2.5%,16.9,10.1,-27.3%,2.6%
Cc1ccc(S(=O)(=O)Nc2ccc(F)cc2)cc1C(=O)N1CCOCC1,x,x,-12.1%,-5.1,x,-3.4%,x
CCN(CC)S(=O)(=O)c1ccc(N2CC(C(=O)NCc3cccnc3)CC2=O)cc1 (configuration not stated),x,-3.0,8.8%,12.6,2.0,u,2.0%
O=C(c1ccc(=O)[nH]n1)N1CCN(S(=O)(=O)c2ccc(C(F)(F)F)cc2)CC1,3.1%,x,12.1%,16.4,-0.4,-4.5%,x
COc1ccccc1-c1cc2nc(C)c(CCC(=O)NCc3ccco3)c(C)n2n1,u,-1.9,-27.1%,13.5,-10.9,-16.7%,10.4%
O=S1(=O)N=C(N2CCN(Cc3ccc4c(c3)OCO4)CC2)c2ccccc21,-1.8%,0.6,-25.2%,8.2,-7.9,14.7%,6.4%
O=c1cc(-c2ccccc2)c2cc(Cl)c(O)c(CN3CCOCC3)c2o1,-8.3%,13.7,-17.9%,13.0,5.2,u,7.9%
O=C(CSc1nnnn1CCCO)Nc1ccc2c(c1)OCO2,x,0.3,2.6%,-9.8,-16.4,-9.9%[15.4 µM],-5.6%
CCN(Cc1ccccc1)C(=O)CSc1n[nH]c(N)n1,x,-0.3,10.8%,3.6,2.3,-11.7%[15.4 µM],-1.3%
CC(=O)c1cnc2c(-c3ccc(Cl)cc3)cnn2c1C,-1.6%,4.4,-4.6%,7.8,2.9,19.8%,9.9%
O=C(CSc1ccc(Cl)cc1Cl)N1CCC(c2nc3ccccc3s2)CC1,-0.7%,0.3,-13.8%,1.3,-8.7,-18.5%,-3.8%
Cn1c(=O)cc(OCC(=O)N2CCC(N3CCCCC3)CC2)c2ccccc21,-7.2%,0.7,12.3%,7.2,-0.6,-2.7%,6.1%
FC(F)(F)c1cccc(OCCOCCn2cncn2)c1,-5.1%,3.1,1.6%,22.9,-32.6,-1.3%,-14.2%
Cc1cn(CC(=O)NCC(c2ccccc2)c2ccccc2)c(=O)[nH]c1=O,0.7%,x,-5.5%,-8.8,x,x,x
